Screens as filed in PubChem.
HSV augment = increases HSV replication in cells; 0.005% of 220,000 active; maximum fold increase; HSV replication augmentation in cells, fold increase; AID 1956;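 active means peak rise of 1.5-fold or more in the series; inconclusive means self-fluorescent or not available for retest; tested in PC3 cells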;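 further: first round at 10 µM; read as green reporter fluorescence; hits show the peak of a series up to 25 µM; 1 = signal of infected wells without compound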
PKD1 inh = inhibitors of human PKD1 kinase; Q15139; PKD1 kinase fluorescence polarization assay; inhibition, %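 (about 10 µM by stock and volumes)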; 0.056% of 200,000 active;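 active means inhibition of 50% or more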;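 further: controls were vehicle for no effect and a reference inhibitor for full effect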
Insulin prom inh = TRM-6 insulin promoter activity inhibition. TRM-6 cells (human fetal islet line), insulin promoter-eGFP reporter, imaging; reporter expression induced with tamoxifen. inhibition, % at 2 µM. 0.9% of 130,000 active. AID 1273;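 active means inhibition above the mean plus 3 SD, with well images judged a real hit on visual review, cut at about 60% in these data, passing the limit was not always enough; inconclusive means inhibition over the cutoff but images rejected on review; inactive means inhibition not above the cutoff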
GALR2 agonist = GALR2 (human) receptor agonism; 0.48% of 140,000 active; activation, %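 (tested at 5 µM)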; GALR2-expressing cells, agonist activation read-out; AID 803;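 active means above mean plus 3 SD of all compounds, about 5% in these data, not always enough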;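 further: 0% = vehicle buffer wells and 100% = reference agonist at full effect; tested in CHO reporter cells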
Target sequence (O43603 whole entry, looked up): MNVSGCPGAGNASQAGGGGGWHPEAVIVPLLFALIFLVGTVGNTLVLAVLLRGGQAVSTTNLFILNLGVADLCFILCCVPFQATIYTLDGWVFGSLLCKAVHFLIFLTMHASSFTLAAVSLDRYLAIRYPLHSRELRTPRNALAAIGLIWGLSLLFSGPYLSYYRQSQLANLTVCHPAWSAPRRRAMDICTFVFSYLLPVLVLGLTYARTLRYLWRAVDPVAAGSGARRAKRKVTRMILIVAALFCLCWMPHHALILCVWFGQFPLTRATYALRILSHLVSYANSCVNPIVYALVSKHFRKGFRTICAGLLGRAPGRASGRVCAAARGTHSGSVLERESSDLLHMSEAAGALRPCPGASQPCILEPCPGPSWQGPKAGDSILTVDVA
RGS16-Gao HTS = regulators of human RGS16-Galphao interaction. O15492+P09471. bead-based flow cytometry RGS16-Galphao binding, fluorescence; actives lie on both sides. binding response (% of control), % at 10 µM. 0.38% of 220,000 active. AID 1441;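 active means below 25% or above 175%, edge rows of some plates excepted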;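 further: Galphao activated by GDP with aluminum fluoride before binding; 100% = wells without compound and 0% = beads without RGS; some results beyond the cut were filed as inactive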
Target sequence (O15492 whole entry, looked up): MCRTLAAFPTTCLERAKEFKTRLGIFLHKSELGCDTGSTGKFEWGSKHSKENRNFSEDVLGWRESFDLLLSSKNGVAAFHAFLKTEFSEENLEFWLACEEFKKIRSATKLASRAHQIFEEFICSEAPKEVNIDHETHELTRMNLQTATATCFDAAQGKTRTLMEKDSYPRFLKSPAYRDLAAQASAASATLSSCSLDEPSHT
Target sequence (P09471 whole entry, looked up): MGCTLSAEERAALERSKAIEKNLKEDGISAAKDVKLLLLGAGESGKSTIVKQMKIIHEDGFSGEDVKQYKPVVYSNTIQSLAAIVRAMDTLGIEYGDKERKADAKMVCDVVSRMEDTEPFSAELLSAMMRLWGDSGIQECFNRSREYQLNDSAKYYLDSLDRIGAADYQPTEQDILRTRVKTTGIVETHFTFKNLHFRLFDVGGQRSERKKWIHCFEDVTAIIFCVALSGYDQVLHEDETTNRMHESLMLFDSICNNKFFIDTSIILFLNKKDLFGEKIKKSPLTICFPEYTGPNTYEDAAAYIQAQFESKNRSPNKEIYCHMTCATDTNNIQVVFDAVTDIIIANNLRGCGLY
Insulin prom inh cell count = also measured in Insulin prom inh; calls as there; normalized cell count, %; measured here: cell count, toxicity; reference of the scale not given here;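 cells exposed to compound for 48 h; stained nuclei by imaging scaled within each plate; lower means fewer cells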
HSV augment primary fold = further read-out of HSV augment, marked with its call; fold increase; compound at 10 µM; measured here: primary screen fold increase 10 uM; tested in PC3 cells;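 GFP signal in the first replicate; 1 = infected wells without compound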
An asterisk follows results filed as active; i = inactive; ? = inconclusive; . = not tested or not shown.

SMILES	HSV augment	HSV augment primary fold	PKD1 inh	Insulin prom inh	Insulin prom inh cell count	GALR2 agonist	RGS16-Gao HTS
Cc1c(C(=O)NCC2CCCO2)sc2nc(-c3ccc(F)cc3)cn12 (centres undefined)	i	0.98	0	57	139	-1.5	100
C=CCNC(=O)C(=O)NN=C1CCN(C)CC1	i	0.88	-3	-30	136	-1.3	52
O=C(NCc1cccnc1)C1c2ccccc2C(=O)N1Cc1ccccc1 (centres undefined)	i	0.72	-7	.	.	-0.6	91
COc1ccc(CCNC(=O)CSc2nc(O)c(CCC(C)C)c(=O)[nH]2)cc1OC	i	0.95	-4	42	86	-2.3	48
O=C(Nc1nc(-c2cccs2)cs1)c1ccc(S(=O)(=O)N2CCCCC2)cc1	i	0.96	-8	.	.	-1.1	145
C/C(=N/NC(=O)COc1cc(C)ccc1C(C)C)C(=O)O	.	.	-6	36	23	.	77
CCOC(=O)Cc1csc(/C(=N/O)C(N)=O)n1	i	0.7	-13	-10	110	-0.9	97
Cc1cc(C(=O)NN)c(Cl)cc1Cl	i	0.98	.	.	.	.	13*
CCOC(=O)c1ccccc1OCc1cc(/C=N/NC(=O)c2ccncc2)ccc1OC	i	0.71	.	.	.	.	89
C=CCn1c(C(CC)CC)nc2ccccc21	i	0.56	.	.	.	.	97
c1ccc(CCn2nnnc2CN2CCN(C3CCCC3)CC2)cc1	i	1.1	-15	11	114	-1.1	127
Cc1noc(NS(=O)(=O)c2ccc(NC(=O)CSc3nc4c(cc3C#N)CCCCC4)cc2)c1C	i	0.95	-2	36	61	-0.3	101
COc1ccccc1N1CCN(C(=O)Oc2ccccc2)CC1	i	1.1	-2	-52	89	-0.5	73
C=CCNC(=O)/C(=C\c1ccc(OC)cc1)NC(=O)c1ccc([N+](=O)[O-])cc1	i	1.1	2	-450	124	.	102
COc1ccc(C2/C=C\CN(S(=O)(=O)c3ccc(C)cc3)[C@H](Cc3ccccc3)C(=O)N2Cc2ccc(F)cc2)cc1 (some centres undefined)	i	1	.	.	.	.	101
COc1ccc(-c2oc3ncn4nc(Cc5ccccc5)nc4c3c2-c2ccc(OC)cc2)cc1	i	0.98	-5	17	94	-1.1	85
CCOc1ccc(OCC)c(NC(=O)C2CCN(c3nn4c(=O)cc(C)nc4s3)CC2)c1	i	0.99	5	-65	104	-1.3	100
CC(c1ccon1)N(C)Cc1c(C(=O)N(C)Cc2ccccc2)nc2ccccn12 (centres undefined)	i	0.98	-2	4	89	.	73
O=C(NCc1ccco1)c1ccc(NC(=O)C2COc3ccccc3O2)cc1 (centres undefined)	i	1	-3	-33	100	-1.6	107
CC(=O)c1cccc(NC(=O)C2C3C=CC(C4CC34)C2C(=O)O)c1 (centres undefined)	i	0.82	-2	25	160	-0.2	99
CN(C)CCNC(=O)/C(=C/c1ccc(-c2cccc([N+](=O)[O-])c2)o1)NC(=O)c1ccccc1	i	0.81	-1	45	100	-1.3	112
COc1ccc(NC(=O)C2CCCCN2S(=O)(=O)c2ccc(F)cc2)c(OC)c1 (centres undefined)	i	1	13	0	85	-1.6	80
CC(OC(=O)Cc1n[nH]c(=O)c2ccccc12)C(=O)Nc1cccc([N+](=O)[O-])c1 (centres undefined)	i	0.86	-7	.	.	.	98
CSCCC(NS(=O)(=O)c1cccs1)C(=O)NCc1ccc(C)cc1 (centres undefined)	i	0.93	-5	-29	88	-1.1	81
CN(C(=O)CSc1nnc(Nc2ccccc2)s1)C1CCS(=O)(=O)C1 (centres undefined)	i	0.95	3	.	.	.	106

(continued)
SMILES	HSV augment	HSV augment primary fold	PKD1 inh	Insulin prom inh	Insulin prom inh cell count	GALR2 agonist	RGS16-Gao HTS
COc1ccc(CC(=O)Nc2ccc(/C(C)=N/NC(=O)c3cccc([N+](=O)[O-])c3)cc2)cc1	i	0.94	-3	18	98	-0.9	103
COC(=O)c1ccccc1NC(=O)CNc1cc(OC)c(OC)cc1C	i	0.86	-8	.	.	-2.4	105
CC1CCCN(Cc2nc3c(c(=O)n(C)c(=O)n3C)n2CCc2ccccc2)C1 (centres undefined)	i	0.88	2	6	117	0.1	92
COc1cccc(-n2nc(-c3ccnn3-c3cccc(Cl)c3)c(=O)n(C)c2=O)c1	i	0.94	.	.	.	.	96
COc1cc(CC(=O)OCC(=O)Nc2ncc(Cl)cc2Cl)cc(OC)c1OC	i	0.97	0	30	107	-2.4	59
CC(=O)Nc1ccc(NC=C(C#N)C#N)cc1	i	0.98	.	.	.	.	103
CC(=O)/C(=N\Nc1ccccc1Cl)Sc1nnc(-c2ccccc2)n1-c1ccccc1	i	1.1	-8	-54	79	0.9	95
c1cncc(-c2noc(-c3cccc4ccccc34)n2)c1	i	0.82	-5	-39	154	-2.5	99
COc1ccc(-c2cc(-c3c(O)c(OC)c4occc4c3OC)[nH]n2)cc1	i	0.92	-1	17	104	-0.7	89
CCc1nc(C)ccc1OCC(=O)N(CC)CC	i	0.92	6	-6	114	-1.7	103
Cc1nc(C(=O)Nc2ccccc2)sc1C1(C)CC(c2cccc([N+](=O)[O-])c2)=NO1 (centres undefined)	i	0.92	.	.	.	.	103
CCn1ncc(-c2ccnc3cc(C(=O)O)nn23)c1C	i	1	0	.	.	.	134
CC(C)(C)CC(=O)NC(=S)NCc1ccco1	i	1.1	-5	-32	105	.	98
COCCCn1[nH]c2c3c(ccc2c1=O)C(=O)c1ccccc1C3=O	i	0.95	12	-7	99	-1.0	97
CCc1ccccc1NC(=O)N1C2CCCC1CC(NC(=O)C(C)(C)C)C2 (centres undefined)	i	1.2	-3	-25	102	-1.2	93
COc1ccccc1OCCCC(=O)Nc1ccc(N2CCOCC2)cc1	i	0.96	-2	.	.	.	119
Cc1ccnc(N2CCC(C(=O)NCc3ccc(F)cc3)CC2)n1	i	0.95	0	.	.	.	108
N#Cc1cc2ccccc2nc1SCc1ccccn1	?	.	6	-29	82	-1.6	99
Oc1cnc2ccccc2c1CN1CCOCC1	i	0.94	1	26	163	1.1	99
O=C(CNc1cccc2ccccc12)N/N=C/c1cccc(Oc2ccccc2)c1	i	0.89	7	19	178	0.4	99
CCN(C(=O)c1cc(Cl)ccc1OC)c1ccccc1C	i	1	-15	-319	61	-1.6	99
O=C(CSc1nnc(NC(=O)c2ccco2)s1)NC1CCCC1	i	0.98	-9	-305	43	-1.2	104
COc1ccccc1CNC(=O)COC(=O)Cc1c(Cl)cccc1Cl	i	1	3	.	.	-1.2	97
O=C(Cn1c2c(sc1=O)C1c3ccccc3OCC1CS2)Nc1ccc(Cl)c(Cl)c1 (centres undefined)	i	1	-13	-20	82	-1.1	104
CC(C)(C)c1ccc(C(=O)NNC(=O)Cc2cccc3ccccc23)cc1	i	0.96	-3	17	106	-0.3	105

Remaining list, next part
SMILES	HSV augment	HSV augment primary fold	PKD1 inh	Insulin prom inh	Insulin prom inh cell count	GALR2 agonist	RGS16-Gao HTS
CCOc1ccc(N(CC(=O)O)S(=O)(=O)c2cccnc2)cc1	i	1.1	-3	.	.	-1.6	99
O=C(COc1nsnc1N1CCOCC1)N/N=C/c1ccccc1O	i	0.75	7	25	113	0.0	98
Nc1[nH]nc2nc(-c3ccccc3)[nH]c(=O)c12	i	1	.	.	.	.	101
O=c1oc2ccccc2c(O)c1C=Nc1cccnc1	i	1.1	-1	.	.	.	106
CC(C)c1nc(-c2ccccn2)no1	i	0.94	0	29	31	-0.6	96
O=C(c1cc(F)ccc1F)C1CCCN(C(=O)CCCN2CCCCC2=O)C1 (centres undefined)	i	0.94	-3	.	.	.	101
Cc1ccc(-c2cc(C(F)F)n3ncc(C(=O)N4CCN(c5cccc(C)c5C)CC4)c3n2)cc1	i	1	-3	16	70	-0.4	103
CC(C)Cn1c(SC(C)C(=O)Nc2ccc3c(c2)OCCO3)nc2ccccc2c1=O (centres undefined)	i	0.94	-6	.	.	-2.1	101
CCOc1cccc(CNCCO)c1OCc1ccc(Cl)cc1	i	0.85	-5	-56	77	-1.9	109
COCCCNC(=O)c1cccc2c(=O)c(C)c(-c3ccccc3)oc12	i	1.1	-15	.	.	-1.3	95
S=c1nc(-c2ccccc2Cl)n(Cc2cccnc2)c2c1CCCC2	i	0.83	0	-42	112	0.8	105
CC(C)(C)NC(=O)COC(=O)CCC(=O)c1ccc(Cl)cc1	i	0.95	-10	-44	76	.	15*
CCn1cc(/C=N/NS(=O)(=O)c2ccc(OC)cc2)c(C)n1	i	1.1	7	-28	32	0.2	98
O=C(NC1CCCC1)c1ccc(CS(=O)(=O)c2ccc(Br)cc2)o1	i	0.82	1	.	.	-3.0	104
CCNC(=S)N1CCc2cc(OC)c(OC)cc2C1COc1ccc(OC)cc1 (centres undefined)	i	0.96	1	.	.	.	103
COc1ccc(CNC(=O)C(C)NS(=O)(=O)c2ccc(C)cc2)cc1 (centres undefined)	i	1.1	-3	.	.	.	93
C=CS(=O)(=O)c1ccc(Oc2ccc(S(=O)(=O)C=C)cc2)cc1	i	0.48	16	-106	20	-3.1	99
O=S(=O)(/N=C(\Sc1ccccc1)c1ccccc1)c1ccc(Cl)cc1	i	0.93	3	26	58	-2.8	98
CCOC(=S)SCC(=O)Nc1nc(-c2ccccc2)cs1	i	0.93	-1	.	.	-1.2	115
Cc1cccc(OCC(=O)O/N=C(\N)Cc2cccs2)c1	i	0.67	-12	.	.	-1.4	104
COc1ccc(/C=N/n2c(N)nc3ccccc32)cc1OC	i	0.9	11	75*	112*	-1.7	171
CCOC(=O)N1CCN(C(=O)/C=C/c2cccc([N+](=O)[O-])c2)CC1	i	1.1	-2	0	118	.	116
CCCCN(C(=S)Nc1cccc(SC)c1)C1CCN(C(C)=O)CC1	i	1	1	-29	163	.	106
CCOc1ccc(-c2nc(CSc3nnc(N)s3)cs2)cc1	i	0.88	0	-35	107	-2.0	93
N#C/C(=C\c1coc2ccc(O)cc2c1=O)C(=O)Nc1nc2ccccc2s1	i	1.2	.	.	.	.	88

RGS16-Gao HTS: hit marks shown above.
molecule	HSV augment	HSV augment primary fold	PKD1 inh	GALR2 agonist	RGS16-Gao HTS
Cc1cc(C(=O)NN)c(Cl)cc1Cl	i	0.98	.	.	13*
CC(C)(C)NC(=O)COC(=O)CCC(=O)c1ccc(Cl)cc1	i	0.95	-10	.	15*

A draw from above in order of SMILES length, high to low.
SMILES	HSV augment	HSV augment primary fold	PKD1 inh	Insulin prom inh	Insulin prom inh cell count	GALR2 agonist	RGS16-Gao HTS
COc1ccc(CC(=O)Nc2ccc(/C(C)=N/NC(=O)c3cccc([N+](=O)[O-])c3)cc2)cc1	i	0.94	-3	18	98	-0.9	103
CC(c1ccon1)N(C)Cc1c(C(=O)N(C)Cc2ccccc2)nc2ccccn12 (centres undefined)	i	0.98	-2	4	89	.	73
COc1cc(CC(=O)OCC(=O)Nc2ncc(Cl)cc2Cl)cc(OC)c1OC	i	0.97	0	30	107	-2.4	59
N#Cc1cc2ccccc2nc1SCc1ccccn1	?	.	6	-29	82	-1.6	99
C=CCn1c(C(CC)CC)nc2ccccc21	i	0.56	.	.	.	.	97

Next records follow.
SMILES	HSV augment	HSV augment primary fold	PKD1 inh	Insulin prom inh	Insulin prom inh cell count	GALR2 agonist	RGS16-Gao HTS
Cn1c(SCC(=O)N/N=C/C=C/c2ccco2)nc2ccccc21	i	0.98	-9	44	86	-0.6	92
CCN1CC2=C(OC(N)=C(C#N)C2c2ccccc2)/C(=C\c2ccccc2)C1 (centres undefined)	i	0.92	-11	21	87	-2.2	100
COc1ccc(CCNC(=O)C(=O)NCC2CCCO2)cc1 (centres undefined)	i	0.9	4	-139	82	-2.4	102
Cc1ccccc1OCC(=O)NNC(=S)NC(=O)c1ccccc1[N+](=O)[O-]	i	0.83	-4	.	.	-0.3	102
Cn1c(SCc2ccon2)nc2ccccc2c1=O	i	1.1	-1	67	140	-2.0	118
CCOC(=O)c1cccc(NC(=O)C(C)N2C(=O)c3ccccc3C2=O)c1 (centres undefined)	i	1	-13	10	131	-0.5	100
Cc1ccccc1NC(=O)C(Cl)=C(Cl)Cl	i	0.78	-5	.	.	.	114
C=CCNC(=S)Nc1ccc(OC(F)F)c(Cl)c1	i	0.94	-11	-29	50	.	100
Cc1ccc(NCc2ccccc2O)cc1C	i	0.99	3	17	100	.	105
CCN(CC)CCn1nc(C)nc1-c1ccccc1O	i	0.82	1	0	175	-4.4	99
O=C(CCc1nc(-c2ccccc2)no1)NCCc1ccccc1	i	0.94	-7	61	138	-2.6	101
Cc1nc2c(C)cccc2cc1C(=O)N/N=C/c1ccc(O)cc1	i	0.78	-15	7	66	-0.7	98
